# Screening results from PubChem BioAssay.
# Sa helicase inh – blocks Staphylococcus aureus DNA helicase; inhibition, %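 (tested at about 80 µM)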; AID 485395; 0.05% of 120,000 active; purified S. aureus helicase, fluorescence unwinding assay; about half of the hits fall short of the stated cut;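 active = both duplicates at 50% or more, or one of them with a favoured structure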;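 also: 0% = mean of negative control wells and 100% = mean of positive control wells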
# MgrA DNA FP – alters Staphylococcus aureus MgrA binding to DNA. 0.13% of 84,000 active. inhibition, %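 (about 10 µg/mL by stock and volumes)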. AID 602314. fluorescence polarization;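 active = above 50% in either of two replicates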;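 also: 0% = protein plus DNA without compound and 100% = DNA alone without protein; higher means less MgrA bound to DNA so lower polarization; one replicate is shown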
# * hit, by the source's call; / = no result given; & = joins results of further samples.
Structure | Sa helicase inh | MgrA DNA FP
CN1CCC(=C2c3ccccc3Sc3ccccc32)CC1 | / | -1.2&4.1
Cc1ccc(S(=O)(=O)Oc2cc(S(=O)(=O)c3ccccc3)ccc2[N+](=O)[O-])cc1 | / | 0.6
CCOC(=O)c1c(-c2cc(OC)ccc2OC)c2oc3ccccc3c2[nH]c1=O | 14 | /
Cc1ccc(S(=O)(=O)NC(=O)Oc2ccc(-c3csnn3)cc2)cc1 | / | -0.4
CCCCOc1ccc(OCCCC)c2c1NC1(N2)C(=O)N(C(C)=O)c2ccccc21 | / | 0.5
O=C(COCc1cc(-c2ccc3c(c2)OCO3)on1)Nc1ccc(OC(F)(F)F)cc1 | -9 | /
COc1ccc(Cl)cc1NC(=O)COC(=O)c1cc(F)c(F)cc1Cl | 31 | 3.2
Cc1ccc(C2C3=C(CC(c4ccco4)CC3=O)Nc3ncnn32)cc1 (stereo not given) | 0 | 0.1
O=C(Nc1sccc1-n1cccc1)NC1Cc2ccccc2C1 | 16 | /
COC(=O)c1cc(-c2ccc(Br)cc2)on1 | 35 | /
CSc1ncc(C(=O)N2CCOCC2)cn1 | 6 | 0.9
Cn1c(=N)n(CCCOc2ccc(Br)cc2)c2ccccc21 | -1 | /
COc1cccc(O)c1C(=O)NCC(=O)O | / | -1.1
Cc1nc(N)c(C(=O)O)nc1C | 5 | -8.8
c1ccc(CNc2nc(-c3ccccc3)ns2)cc1 | / | -0.7
CN(C)CCNC(=O)C1CCCNC1=O (stereo not given) | -1 | /
O=C1CC(C(=O)O)N=C(Nc2nc3ccccc3s2)N1 (stereo not given) | -2 | -2.9
c1ccc2c(c1)COC1(CCCCC1)N2 | -1 | -0.2
Cc1ccc2c(COC(=O)c3c(C)noc3C)cc(=O)oc2c1 | 6 | /
CCOc1ccc(S(=O)(=O)N2CCN(C(=O)[C@H](C)NC(N)=O)CC2)cc1 | 0 | /
COC(C)(C)/C=C(\N)C(=O)c1ccccc1 | 2 | -0.9
CC(c1ccccc1)n1c(N)c(C#N)c2nc3ccccc3nc21 (stereo not given) | 8 | -0.5
Cc1ccc2oc(=O)c3cc(C(=O)N(C)Cc4ccco4)sc3c2c1 | -3 | /
CCn1c(=NC(=O)CN2C(=O)c3ccccc3C2=O)sc2cccc(F)c21 | 16 | /
COCCN=c1scc(-c2ccccc2F)n1/N=C/c1ccco1 | -7 | /
Cc1ccc(-n2ncc3c(=O)[nH]c(SCC(=O)N4CCCc5ccccc54)nc32)cc1 | 6 | 2.9
CC(=O)Nc1nc2c(s1)C(=O)CC(C)(C)C2 | -14 | -0.1
Cc1nc(NCCN2CCOCC2)c2sc3nc4c(cc3c2n1)COC(C)(C)C4 | 4 | 0.0
O=c1c(-c2ccn(-c3ccccc3)n2)c(O)c2ccccc2n1-c1ccccc1 | -3 | -0.8
N#CC1(NC(=O)Cn2nnc3ccccc3c2=O)CCCC1 | -1 | /

# Taken from above.
# O=c1c(-c2ccn(-c3ccccc3)n2)c(O)c2ccccc2n1-c1ccccc1 – Sa helicase inh: -3
# N#CC1(NC(=O)Cn2nnc3ccccc3c2=O)CCCC1 – Sa helicase inh: -1

# Continued:
Structure | Sa helicase inh | MgrA DNA FP
CC(=O)Nc1ccc(NC(C)=O)cc1 | / | -1.4
CCOC(=O)C1=C[C@]2(CC)CCCN3CCc4c(n1c1ccccc41)[C@@H]32 | / | -1.0&-2.2
c1ccc(-n2ncc3c(N4CCCCC4)ncnc32)cc1 | 15 | -3.0
COC(=O)Cn1ncc2c3ccccc3n(Cc3cccc(Cl)c3)c2c1=O | 5 | -1.1
O=C(Nc1ccc2[nH]c(=O)oc2c1)c1ccccc1 | -20 | /
O=C(Cn1ncc2c(=O)oc3ccccc3c21)Nc1nc2ccccc2s1 | 15 | 1.4
Cc1c(S(=O)(=O)c2ccc(Cl)cc2)csc1C(=O)NN | / | -2.4
Nc1c(C(=O)N2CCOCC2)sc2nc3c(cc12)CCCC3 | 2 | 1.2
CC(=O)NC(=O)c1cc2ccccc2oc1=Nc1ccc(Cl)cc1 | 8 | 1.5
O=C(O)c1cccnc1Sc1ccc2c(c1)OCCO2 | 12 | /
O=c1cc(CSc2nnc(-c3ccco3)n2Cc2ccccc2)nc2sccn12 | -3 | /
O=C1NC2(CCN(C(=O)NCC3CCCO3)CC2)Oc2ccccc21 (stereo not given) | 2 | /
CCOc1ccc(N2C(=O)/C(=C/c3cccs3)C(=O)N(c3ccccc3)C2=S)cc1 | 17 | 16
CCC(Sc1ncccn1)C(=O)Nc1cc(C)on1 (stereo not given) | 6 | 1.4
CC(Sc1ccc(F)cc1)C(=O)NC(N)=O (stereo not given) | 13 | /
Cc1ccc(C(C)C)c(OC(=O)NC2(C(F)(F)F)Oc3ccc(Cl)cc3O2)c1 (stereo not given) | 5 | -1.8
O=c1[nH]c(CSCc2ccco2)nc2ccccc12 | -2 | /
COC(=O)c1ccc(NC(=O)Cn2cncn2)cc1 | -5 | 1.1
N#Cc1c(N)nc2c(c1N)CC(=O)N2C1CCS(=O)(=O)C1 (stereo not given) | -5 | /
CCOCCn1ccc2c(OCC(=O)Nc3ccc4c(c3)OCCO4)cccc2c1=O | 1 | /

# Shown with each value named: entries from further up.
CCCCOc1ccc(OCCCC)c2c1NC1(N2)C(=O)N(C(C)=O)c2ccccc21
  Sa helicase inh: /	MgrA DNA FP: 0.5

CCC(Sc1ncccn1)C(=O)Nc1cc(C)on1 (stereo not given)
  Sa helicase inh: 6	MgrA DNA FP: 1.4

c1ccc(-n2ncc3c(N4CCCCC4)ncnc32)cc1
  Sa helicase inh: 15	MgrA DNA FP: -3.0

# Further records
Structure | Sa helicase inh | MgrA DNA FP
COc1ccccc1C1CCN(C(=O)c2cccs2)CC1 | / | 4.7
Cc1ccc(Oc2ncccc2C(=O)O)cc1 | / | -1.7
Brc1ccc2c(c1)C=CC2 | -25 | /
CCn1cc(C(=O)N2CCCC2)c(=O)c2cc(S(=O)(=O)N(C)C)ccc21 | 8 | -3.2
CC1(C)CC(=O)C2=C(C1)NC(=O)NC2c1c(O)ccc2ccccc12 (stereo not given) | 9 | /
O=C(CSc1nnc(-c2ccc(S(=O)(=O)N3CCCC3)cc2)n1CC1CCCO1)NC1CC1 (stereo not given) | 3 | -1.2
COc1ccc(CCNC(=O)NC2CC(=O)N(c3ccc4c(c3)OCCO4)C2)cc1OC (stereo not given) | 9 | /
Cc1ccc(NC(=O)c2ccc(CSc3ncnc4nc[nH]c34)cc2)cc1 | 3 | -3.2
CN(Cc1ccccc1)C(=O)c1ccccc1NC(=O)C1CC1 | -5 | -4.5
CCCc1ccc(-c2nc(-c3cccs3)no2)cc1 | / | 0.9
NC(=O)c1cc2c(ccc3ccccc32)oc1=O | 6 | 1.9
CC(C)CCNC(=O)c1cccn2c(=O)c3c4c(sc3nc12)CCCC4 | 18 | -0.5
c1ccc(CCn2c(COc3ccccc3)nc3ccccc32)cc1 | 8 | -2.1
Cc1cc(N2CCCC2)ccc1/C=C(/C#N)c1ccc(F)cc1 | 13 | -1.6
CSc1sc(C(=O)NN)cc1-c1nc(C)cs1 | / | -2.5
CC1(C)Oc2ccc3ccc(=O)oc3c2C/C1=N/NC(N)=O | -18 | /
C=CCSc1nnc(N)s1 | -5 | /
O=C(Nc1nnc(-c2cccs2)o1)c1ccccc1 | -19 | /
c1ccc(-c2cn3ccc4ccccc4c3n2)cc1 | / | -1.6
CCOC(=O)c1cc(-c2ccccc2)n(-c2ccc(C(=O)NCc3ccco3)cc2)c1C | -10 | /
COc1ccc(-c2ocnc2C(=O)Nc2ccc(F)cc2F)cc1 | -2 | -6.3
Cc1nn(CC(=O)NC(C)CCc2ccccc2)c(=O)c2cc3sccc3n12 (stereo not given) | 20 | /
Cc1ccc(S(=O)(=O)N(CCO)Cc2ccccc2)cc1 | 3 | -1.9
COC(=O)CSc1nn(-c2ccc(F)cc2)c(=S)s1 | 6 | /
COc1ccc(-c2nn(-c3ccccc3)cc2/C=C\C(=O)N(C)C)cc1 | 6 | -0.1
CC12CCC(C(=O)NC3CCCCC3)(CC1=O)C2(C)C (stereo not given) | 16 | 0.6
O=C(CC1SC(=O)NC1=O)Nc1nccs1 (stereo not given) | 9 | /
COc1ccc(C2CC(=O)C3=C(C2)Nc2ccccc2NC3c2ccc(C(F)(F)F)cc2)cc1 (stereo not given) | / | -0.8
CCSc1nsc(NC(=O)Nc2cccc(OC)c2)n1 | -7 | 20
COc1ccc(C2NCCO2)cc1OC (stereo not given) | 8 | 0.1
CCc1ccc(NC(=O)CSc2nccn2-c2ccccc2)cc1 | 17 | /
COC(=O)COc1ccc2c(=O)c(-c3ccccc3OC)coc2c1 | 4 | /
O=C(CN1C(=O)CCC1=O)NC(c1ccccc1)c1ccccc1 | 12 | /
COc1cc(/C=N/n2cnc3c(sc(=S)n3C)c2=O)ccc1O | / | 1.1
CC(C)(C#N)Nn1cnnc1 | 1 | 3.2
COc1cc(CNc2ccc3c(c2)OCCO3)ccc1OCC(N)=O | 0 | -2.3
COc1ccc(/C=C2\CC/C(=C\c3ccc(C)cc3)C2=O)cc1 | -9 | 4.3
Cn1nnnc1SCc1cc(=O)[nH]c2ccccc12 | 14 | /
c1ccc(-c2nnc(-c3ccccc3)c3nonc23)cc1 | -11 | /
C/C=C\C(=O)NCc1ccc2[nH]c3c(c2c1)CCCC3 | 23 | /
COC(=O)c1cc2c(ccn2-c2ccc(F)cc2)n1C(C)C | 10 | -0.9
O=C(/C=C/c1c(Cl)nc2sccn12)NCC1CCCO1 (stereo not given) | 17 | /
CC1(C)CC(O)CC(C)(C)N1CC(O)COC1CCCCC1 (stereo not given) | -1 | /
CCN1C(=O)/C(=C\c2ccsc2)SC1=S | 3 | -1.5
CC1CN(CC(=O)c2cccs2)CC(C)O1 (stereo not given) | -2 | /
Clc1ccc(-c2nnc(CSc3nnc(SCC4CC4)s3)o2)cc1 | / | -3.4
CSC1=C(C#N)C(c2ccc(C)cc2)CC(=O)N1 (stereo not given) | -14 | /
Clc1ccc2nc3c4ccccc4cnn3c2c1 | -26 | /
CC1CN(C(=O)CSc2nc3c(cnn3-c3ccccc3)c(=O)[nH]2)CC(C)O1 (stereo not given) | -14 | /
CCN(CC)CCSc1nc(O)c(C)c(=O)[nH]1 | 15 | 3.0

# A second format for some results above:
> CC1CN(CC(=O)c2cccs2)CC(C)O1 (stereo not given)
  Sa helicase inh = -2
  MgrA DNA FP = /

> Clc1ccc(-c2nnc(CSc3nnc(SCC4CC4)s3)o2)cc1
  Sa helicase inh = /
  MgrA DNA FP = -3.4

# Continuation:
Structure | Sa helicase inh | MgrA DNA FP
CC(Cc1cccs1)N(Cc1ccc(Cl)cc1)C(=O)c1ccncc1 (stereo not given) | -12 | -1.0
COc1cc([N+](=O)[O-])ccc1N1CCCC1 | / | -2.4
CC(=C1C(=O)c2ccccc2C1=O)N1CCN(c2cccc(Cl)c2)CC1 | 3 | 2.0
O=C(Nc1ccc(SC(F)F)cc1)C1=COCCO1 | -14 | /
O=C(CSc1ccc(S(=O)(=O)N2CCCCC2)cn1)N1CCCC1 | -20 | /
CCOC(=O)c1cnn2c(C)c(Cc3cccc(F)c3)c(C)nc12 | / | 1.5
O=C(Nc1ccc(-c2nnc3n2CCCCC3)cc1)c1ccco1 | 0 | -1.8
Cc1cc(C)c(C)c(Cn2cnc3ccccc32)c1C | 18 | 0.0
CC(Nc1ccc(Br)cc1)C(=O)NC1CCCC1 (stereo not given) | 4 | /
Cc1c(NC(=O)CC2(CC(=O)N3CCOCC3)CCCC2)c(=O)n(-c2ccccc2)n1C | -5 | /
COC(=O)n1ccc(C(=O)Nc2ccccc2F)n1 | 9 | /
COC(=O)CCn1nc(-c2ccc(Cl)cc2)c2ccccc2c1=O | -1 | 2.0
C=CCN1C(=O)C(=O)/C(=C(\O)c2ccccc2)C1c1ccccc1Cl (stereo not given) | 20 | -0.2
COC(=O)CN(c1ccccn1)S(=O)(=O)c1ccccc1 | 7 | -2.0
CCN(Cc1ccccc1)C(=O)C1(S(=O)(=O)c2ccc(C)cc2)CC1 | -10 | /
CCOc1cc(C(=O)CCC(=O)N(C)Cc2cccnc2)ccc1O | -26 | /
COc1ccccc1NCC(=O)c1ccc(Cl)cc1 | -7 | 0.8
COc1cc(OC)c(OC)cc1CN1CCN(c2ccccc2F)CC1 | 10 | -0.9
COc1cc2c(cc1NC(=O)c1cccnc1)oc1ccccc12 | -3 | /
O=C(c1ccc(F)cc1)C1CCN(C(=O)C2CC2)CC1 | -8 | -0.6
O=C(COC(=O)C1C2CC3OC(=O)C1C3C2)Nc1ccccc1 (stereo not given) | 8 | 6.4
CC(NC(=O)C(O)(c1ccccc1)c1ccccc1)C(=O)O (stereo not given) | 10 | -3.6
COC(CNC(=O)/C=C1\Sc2ccccc2N(Cc2ccccc2F)C1=O)OC | 8 | -0.5
CCOc1ccc(NC(=O)C(Nc2ccc(OCC)cc2)c2ccccc2)cc1 (stereo not given) | / | -2.9
CCc1cc2c(=O)c(-c3ccccc3)coc2cc1O | 0 | /
CCCN1CCC2(CC1)C(C#N)=C(S)NC(=O)C2C#N (stereo not given) | 0 | 1.2
CC1=CS(=O)(=O)CC1Sc1nc2ccccc2[nH]1 (stereo not given) | 11 | -3.4
O=[N+]([O-])c1cc(C(F)(F)F)ccc1N1CCOCC1 | / | 2.3
CCOC(=O)c1ccc(N=C2SC(C(=O)Nc3ccccc3OC)CC(=O)N2C)cc1 (stereo not given) | / | -0.5
CCOc1ccc(CC#N)cc1OCC | -18 | -0.3
Cc1cccn2c(=O)c(C=NCc3ccccc3)c(NCc3ccco3)nc12 | -38 | /
C[C@@H]1CC2C3CCC4=CC(=O)C=C[C@]4(C)[C@@]3(F)[C@@H](O)C[C@]2(C)[C@@]1(O)C(=O)COP(=O)(O)O (stereo not given in full) | / | 1.3
CSc1cccc(NC(=O)CSc2nc3ccccc3[nH]2)c1 | 9 | 0.5

# Some of the compounds tested, so the mix of outcomes need not match the whole.
